Compound activity (PubChem BioAssay)
TAR Tat displ: TAR RNA-Tat peptide displacers, HIV-1, primary screen, biochemical, FRET, FAM/TAMRA-labeled Tat; HIV-1 TAR RNA, Tat peptide displacement FRET; active compounds read high; z-score (no concentration beside the values); hit rate 0.6% among 100,000; AID 1259389, 2018;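 also: score is relative to mean and SD of negative controls; some compounds called inactive have numbers as strong as hits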
CDC25B CDK2 inh: primary biochemical HTRF screen for blockers of M-phase inducer phosphatase 2 binding to CDK2/cyclin A | P30305+P24941 | HTRF CDC25B-CDK2/CyclinA binding, anti-His/anti-Flag; active compounds read high | z-score (test concentration not listed) | hit rate 0.72% among 94,000 | AID 1259370, 2018;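 also: score is relative to mean and SD of negative controls; strong numbers were not always called active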
Active calls of the source: *; . = not tested or not shown.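 The calls were made as follows: active = z-score from 3 up in half or more of its runs; inactive = the rest.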

SMILES	TAR Tat displ	CDC25B CDK2 inh
CC1CCCCN1C(=O)CSc1nc2ncccc2[nH]1 (stereo not drawn)	-0.4	0.12
O=C1CC(c2cccc(O)c2)c2c(nc(SCc3ccc(Cl)cc3)[nH]c2=O)N1 (stereo not drawn)	0.7	-1.28
CCOC(=O)C(=CNc1ccc(F)cc1)C(=O)OCC	.	-1.19
Cc1c(-c2nc(-c3ccc4c(c3)OCO4)no2)nnn1-c1ccc(F)c(Cl)c1	0.84	.
CCOC(=O)CSc1nnc(CSc2ncccn2)n1-c1ccc(F)cc1	0.27	-0.7
O=C(Oc1ccc2cnccc2c1)c1sc2ccccc2c1Cl	-4.83	.
COc1ccc(N2CCN(c3oc(COc4ccccc4F)nc3C#N)CC2)cc1	1.48	-0.26
CCCc1cc(=O)n2nc(N(C)CC(=O)Nc3ccc4c(c3)OCCO4)sc2n1	2.9	-1.21
CCC(=O)Nc1nn2c(CC)nnc2s1	2.03	-1.11
CC(C)(C)c1nnc2sc(-c3ccccc3)nn12	0.56	-0.46
C#CCOC(=O)Nc1ccccc1[N+](=O)[O-]	.	-1.44
S=c1nc[nH]c2nc[nH]c12	2.5	.
O=C(CN1N=NC2C(=O)N(c3ccc(Br)cc3)C(=O)C21)Nc1ccc(F)c(Cl)c1 (stereo not drawn)	-0.46	.
Cn1c(=O)c2c(nc(CN3CCN(c4ccccc4F)CC3)n2CC(N)=O)n(C)c1=O	-1.01	-0.57
O=C(c1ccc(NC(=O)N2CCSc3ncccc32)cc1)N1CCC(N2CCCCC2)CC1	0.96	.
CCOc1ccc(C(=O)Nc2ccc3oc(-c4c(F)c(F)c(F)c(F)c4F)nc3c2)cc1Cl	.	1.44
O=C(NNC(=S)Nc1ccccc1Cl)c1ccccc1C1=NCCCN1	.	-2.34
Cc1scc(CCNC(=O)Nc2ccc(F)cc2F)c1C	-0.89	.
CC1CCC(NC(=O)C2(C)Cn3c(cc4sccc43)C(=O)N2CCCN2CCCCC2)CC1 (stereo not drawn)	2.41	-0.28
CCCCN(C)[C@H]1CS(=O)(=O)C[C@@H]1S(=O)(=O)c1ccc(NC(C)=O)cc1	0.43	-1.48
CCCCN(C)CCNc1ncnc2nc[nH]c12	.	0.12
CC(C1CC1)n1nccc1NC(=O)c1ccc(Br)cc1 (stereo not drawn)	1.23	-1.6
Cc1ccc(C)c(Cn2c(C)c(CNCc3ccco3)c(C(=O)O)c2C)c1	0.41	-0.65
O=C(O)CNC(=O)Nc1ccccc1	.	-1.62
COc1cccc(CNS(=O)(=O)c2ccc3c(c2)CCN3)c1	0.98	.
O=C(CSc1nccn(-c2cccc(Cl)c2)c1=O)c1ccc(F)cc1	-0.42	.
O=c1c(SCc2c(F)cccc2Cl)nccn1-c1cccc(F)c1	0.26	.
Nc1ccccc1CCc1ccccc1N	1.28	-2.55
C=CCN1C(=O)C(O)(CC(=O)c2ccc(-n3cccc3)cc2)c2ccccc21 (stereo not drawn)	-3.42	-1.21
Fc1ccccc1Nc1nc2ccccc2n2nnnc12	-3.68	-0.53
S=c1[nH]nc(Cc2ccsc2)o1	.	-1.86
Cc1ccc(Cl)cc1NC(=O)N1CCn2c(C)ccc2C1C(C)C (stereo not drawn)	0.8	.
CCCCOC(=O)CSC1=C(C#N)C(c2ccc(Cl)cc2)CC(=O)N1 (stereo not drawn)	-0.22	-0.87
COc1cccc2c(OC(C)=O)coc12	.	-0.71
O=C(CSc1nc2ccccc2nc1N1CCOCC1)N1CCCc2ccccc21	-0.17	0.5
Cc1cc2nc(C)n(Cc3ccc(F)cc3)c2cc1C	-1.2	-0.28
CCN(c1ccccc1)S(=O)(=O)c1cc(-c2csc(C)n2)ccc1C	2.33	.
CCCCN1C(=O)NC2C1NC(=O)N2CCCC (stereo not drawn)	-0.13	-1.05
CCCN(CCC)S(=O)(=O)c1cc(Br)cnc1N	0.89	-2.02
Cn1nc(C(F)(F)F)c(-c2ccccc2)c1NS(C)(=O)=O	.	-1.55
CS(=O)(=O)c1nc(S(=O)(=O)c2ccc(Cl)cc2)c(NCc2ccc(F)cc2)s1	1.27	-0.51
CCOC(=O)c1c[nH]c2ccc(C(F)(F)F)cc2c1=O	.	-1.69
O=C(CC1C(=O)N(c2cccc(Cl)c2)C(=O)N1Cc1cccs1)Nc1ccc(F)cc1 (stereo not drawn)	.	-0.43
CCN1CCN(C(=O)C2Cc3cc(S(=O)(=O)N4CCCC4)ccc3N2C(C)=O)CC1 (stereo not drawn)	2.3	.
COc1ccc(Nc2ncc3c(n2)CCN(Cc2cc(F)cc(F)c2)C3)cc1	0.31	.
CS(=O)(=NC=C(C#N)C#N)c1ccc(Cl)cc1 (stereo not drawn)	.	-1.75
Cc1cn(CCC(=O)NCc2ccc3c(c2)OCO3)c2ccccc12	.	-1.31
Cc1ncc(-c2ccc(S(=O)(=O)N3CCN(c4cc(Cl)ccc4C)CC3)cc2)o1	0.79	.
Cn1c2ccccc2c2cnn(CC(=O)NC3CC3)c(=O)c21	0.2	2.05
O=C(Oc1ccc(Cl)c2cccnc12)N1CCOCC1	0.82	-0.65
Cc1nn(-c2nc3ccccc3[nH]2)c2c1C(c1c(C)sc3ccccc13)CC(=O)N2 (stereo not drawn)	1.92	.
CSc1sc(Br)c2c1C(=O)CC(C)(C)C2	.	-1.24
CN(CC1CCCO1)S(=O)(=O)c1ccc(C(=O)Nc2nc3cc4c(cc3s2)OCO4)cc1 (stereo not drawn)	0.1	.
O=C(CN1C(=O)C2C3C=CC(CC3)C2C1=O)NCc1ccc2c(c1)OCO2 (stereo not drawn)	.	0.14
CC(C(=O)NCCCN(C)C1CCCCC1)n1ncn2cccc2c1=O (stereo not drawn)	0.98	-0.83
CC(C)c1ccc(CN(C(=O)c2cc(=O)c3cc(Cl)ccc3o2)C2CCS(=O)(=O)C2)cc1 (stereo not drawn)	-1.69	-2.1
Cn1c(C(=O)Nc2ccc(C(N)=O)cc2)cc2c(=O)n3ccccc3nc21	0.94	.
O=S(=O)(c1cccc(Cl)c1)N1CCN(c2nc3ccccc3n3cccc23)CC1	-0.93	-1.42
COc1ccc2ccccc2c1C1OC(=O)C2(CCCCC2)C(=O)C1(C)C (stereo not drawn)	0.38	-1.31
Cc1ccc2[nH]c3c(=O)n(CC(=O)NC4CC4)ncc3c2c1	-0.44	.

Additional compounds.
SMILES	TAR Tat displ	CDC25B CDK2 inh
Cc1noc2ncnc(N3CCCC(C(=O)N4CCN(c5ncccn5)CC4)C3)c12 (stereo not drawn)	1.59	.
CC(C)(C)C(=O)Nc1ccc(-n2cccc(C(=O)NC3CC3)c2=O)cc1	-0.15	.
CC(=O)C1C(=O)c2cccc([N+](=O)[O-])c2C1=O (stereo not drawn)	.	-2.16
COc1ccc(-c2nc(SCC(=O)N(C)c3ccccc3)n3[nH]c(=O)cc3n2)cc1	1.51	.
Cn1c(=O)sc2cc(NS(=O)(=O)c3ccc4[nH]c(=O)[nH]c(=O)c4c3)ccc21	1.44	-1.14
CCCC1=Nc2cc(C(=O)O)ccc2Sc2ccccc21	1.35	.
O=C(O)c1ccc(-c2nc3ccccc3[nH]2)cc1	0.83	-1.48
CN(C)CCNC(=O)c1cnn(-c2cccc(F)c2)c1-n1cccc1	0.3	.
CC1=C(c2cccc(Br)c2)S(=O)(=O)N=C1Nc1ccccc1F	-1.61	-3.18
CC1Cc2cc(S(=O)(=O)N3CCC(C(N)=O)(N4CCCCC4)CC3)ccc2N1C(=O)C1CC1 (stereo not drawn)	-0.34	.
CCN(CC)S(=O)(=O)c1ccc2c(c1)N(CC(=O)NC)C(=O)C1CCCN21 (stereo not drawn)	-0.16	0.02
O=C(CSc1cn(CC(=O)N2CCCC2)c2ccccc12)N1CCOCC1	-0.38	.
O=C(Cn1c(=O)n(Cc2ccco2)c(=O)c2oc3ccccc3c21)Nc1cccc(Cl)c1	1.85	.
O=C(c1ccncc1)N1CCN(Cc2ccc3c(c2)OCO3)CC1	0.89	-1.02
COC(=O)c1c(NC(=O)c2cc(=O)c3cc(C)cc(C)c3o2)sc2c1CCCC2	0.76	-1.58
CC(C)c1ccc(OCCCCN2CCCC2)cc1	-0.93	-0.31
N#CC1=C(N)Oc2cc(O)ccc2C1c1cccc(Br)c1 (stereo not drawn)	2.68	-2.44
Cc1cc(C)n2c(SCc3ccccc3)nnc2n1	2.7	0.72
COc1ccc(S(=O)(=O)NCC(c2ccco2)N2CCOCC2)cc1OC (stereo not drawn)	1.65	.
Nc1nonc1-n1nnc(C(=O)O)c1-c1cccs1	.	-0.27
Cc1ccn2cc(-c3ccc(Br)cc3)nc2c1	-0.83	-1.42
CCc1nn(CCCC(=O)N2CCC3(CC2)OCCO3)c(=O)c2cc3occc3n12	.	-2.19
O=C(Cc1csc(NC(=O)NC2CCCCC2)n1)NCC1CCCCC1	2.3	.
Cc1nc(-c2ccc(C)c(S(=O)(=O)N3CCCCC3)c2)cs1	0.03	.
Cn1cnc(S(=O)(=O)Nc2ccc(Cl)cn2)c1	2.37	.
COc1ccc(NC(=O)COCc2cc(-c3cccs3)on2)c(OC)c1	-1.43	.
N#Cc1c(-c2cccs2)cc(-c2ccccc2)[nH]c1=S	-0.19	-1.85
CCOC(=O)C1CCN(C(=O)N2c3ccccc3Sc3ccccc32)CC1	0.59	-0.01
O=S1(=O)CC2=C(SCC/C2=N\Nc2c(Cl)cc(Cl)cc2Cl)c2cc(Cl)ccc21	.	-2.8
CCSC1=C(C#N)C(c2ccccc2C)C(C(=O)OC)C(=O)N1 (stereo not drawn)	0.29	-0.39

13 entries already listed, arranged by number of heavy atoms, highest first.
SMILES	TAR Tat displ	CDC25B CDK2 inh
O=C(Cn1c(=O)n(Cc2ccco2)c(=O)c2oc3ccccc3c21)Nc1cccc(Cl)c1	1.85	.
CCc1nn(CCCC(=O)N2CCC3(CC2)OCCO3)c(=O)c2cc3occc3n12	.	-2.19
COC(=O)c1c(NC(=O)c2cc(=O)c3cc(C)cc(C)c3o2)sc2c1CCCC2	0.76	-1.58
O=S1(=O)CC2=C(SCC/C2=N\Nc2c(Cl)cc(Cl)cc2Cl)c2cc(Cl)ccc21	.	-2.8
CCOC(=O)C1CCN(C(=O)N2c3ccccc3Sc3ccccc32)CC1	0.59	-0.01
COc1ccc(NC(=O)COCc2cc(-c3cccs3)on2)c(OC)c1	-1.43	.
O=C(c1ccncc1)N1CCN(Cc2ccc3c(c2)OCO3)CC1	0.89	-1.02
CCSC1=C(C#N)C(c2ccccc2C)C(C(=O)OC)C(=O)N1 (stereo not drawn)	0.29	-0.39
Cc1nc(-c2ccc(C)c(S(=O)(=O)N3CCCCC3)c2)cs1	0.03	.
N#CC1=C(N)Oc2cc(O)ccc2C1c1cccc(Br)c1 (stereo not drawn)	2.68	-2.44
N#Cc1c(-c2cccs2)cc(-c2ccccc2)[nH]c1=S	-0.19	-1.85
Nc1nonc1-n1nnc(C(=O)O)c1-c1cccs1	.	-0.27
Cc1ccn2cc(-c3ccc(Br)cc3)nc2c1	-0.83	-1.42

The listing continues:
SMILES	TAR Tat displ	CDC25B CDK2 inh
O=C(NC1CCCCCCC1)C1CCC(CNc2c(N3CCCC3)c(=O)c2=O)CC1 (stereo not drawn)	.	-0.13
CC(C)C(=O)Nc1nc2cc(NS(C)(=O)=O)ccc2s1	0.32	.
O=C(Cn1ccn(-c2ccc(F)c(F)c2)c(=O)c1=O)c1ccc(F)cc1	1.18	.
COc1ccc(-n2c(CC3C(=O)N(C)c4ccc(Br)cc43)nc3ccccc3c2=O)cc1 (stereo not drawn)	-1.04	0.75
Cc1ccc(Nc2nc(NCc3ccco3)nc3c2cnn3C)cc1	1.07	.
O=C(Cn1nc2c3sccc3ncn2c1=O)NCc1ccc(Cl)cc1	0.21	.
CNc1oc(-c2ccc(COc3ccc(C)cc3)o2)nc1C#N	1.64	-1.69
Cc1ccc2nc(NC(=O)c3sc(C)nc3C)sc2c1	0.91	0.17
Fc1ccccc1Cn1c(CN2CCCCC2)nc2ccccc21	-0.15	-1.85
COc1ccc(C2c3c(oc4ccc(Cl)cc4c3=O)C(=O)N2CCCN2CCOCC2)cc1 (stereo not drawn)	-0.24	-0.56
COc1cc(/C=N/N=C/c2ccccc2O)cc(OC)c1OC	.	-1.63
Cc1cc(C)c2c(C)c(C(=O)NCC(c3ccc(C)o3)N(C)C)oc2c1 (stereo not drawn)	-0.71	-2.16
O=C1c2ccccc2C2OCc3ccccc3N12 (stereo not drawn)	.	-0.76
COc1ccc(Oc2ccc([N+](=O)[O-])cc2-c2nc(CS(=O)(=O)c3ccc(F)cc3)no2)cc1	.	-1.28
O=C(Nc1ccccc1C(=O)NCCc1c[nH]c2ccccc12)c1ccccc1Cl	.	-0.4
Cc1cc(-c2ccc(C)c(S(=O)(=O)N3CCC(N(C)CC4CCCO4)CC3)c2)on1 (stereo not drawn)	1.13	.
CCCn1cc(C2CC(=O)N(c3ccc(O)cc3)C2=O)c2ccccc21 (stereo not drawn)	-1.17	-1.17
COc1cc(/C=C2\N=C(c3ccc(C)c([N+](=O)[O-])c3)OC2=O)ccc1OCc1ccc(F)cc1	.	6.3
COC(=O)c1ccc(OC)c(CN2N=NC3C(=O)N(c4ccccc4)C(=O)C32)c1 (stereo not drawn)	0.97	-1.19
CCCCc1nn2c(=O)cc(COC(=O)c3ccccc3)nc2s1	0.02	.
Cn1c(=O)c2sccc2n2c(CCCC(=O)NC3CCCC3)nnc12	1.7	-1.37
COc1ccc(C(=O)Oc2cccc3cccnc23)cc1OC	0.74	0.25
CCCCN(C)S(=O)(=O)c1ccc2c(c1)oc(=O)n2CC(=O)OCC	.	-1.21
c1ccc(-n2nnnc2Oc2cccc(CNCc3ccc4c(c3)OCO4)c2)cc1	0.83	.
